# Vaccinia Venus: inhibitors of vaccinia virus (Venus reporter); Vaccinia virus Venus reporter expression, fluorescence; Potency, µM (titrated, usually from 36.5 µM), for inactives: at the top dose activity change, negative = inhibition, most hits filed as inhibitors; 330,000 tested, 0.46% active; AID 720580; active means well fitted inhibition curve with a large enough effect; inconclusive means small, poorly fitted or top-dose-only effect; inactive means no such curve, though single readings can be large or run the other way; tested in A549 cells; note: nearly all actives have a fitted effect of over 30% in size; inactives centre near -10
# VACV mCherry inh: inhibitors of vaccinia virus infection (mCherry reporter signal) | Vaccinia virus mCherry reporter infection, fluorescence; about a quarter of the inactives have no number | Potency, µM (titrated, usually from 36.5 µM), without a hit: at the top dose activity change, negative = inhibition, usual class: inhibitors | 310,000 tested, 0.63% active | AID 720579; active = well fitted inhibition curve with a large enough effect; inconclusive = small, poorly fitted or top-dose-only effect; inactive = no such curve, though single readings can be large or run the other way; tested in A549 cells; note: nearly all actives have a fitted effect of over 35% in size; inactives centre near -10
# * marks the source's active call; other numbers are inactive results; i = inactive; ? = inconclusive; / = no result given; & = joins results of further samples; [ ] = remark or other dose. % is set by controls: 0 for no effect and ±100 for the full control effect; potency is the fitted concentration of half-maximal effect. No enrichment for hits. About 0.86% of those tested had a hit in this group.
SMILES,Vaccinia Venus,VACV mCherry inh
C=CCN1C(=NC(=O)CCC(=O)O)SC2CS(=O)(=O)CC21 (stereo not drawn),-13.5%,/
O=C(COC(=O)c1n[nH]c(=O)c2ccccc12)c1ccccc1,-19.8%,i
CNC(=O)CN(c1ccc(C23CC4CC(CC(C4)C2)C3)cc1)S(C)(=O)=O,-8.7%,-15.4%
CC(=O)Nc1ccc(-c2cc(C(=O)O)c3c(-c4ccccc4)[nH]nc3n2)cc1,-1.6%,3.8%
COc1ccc(C=NNC(=O)c2ccccc2NS(=O)(=O)c2cccs2)cc1O,-4.9%,i
COc1cccc(CCNCc2c(F)cccc2F)c1,-6.0%,-4.0%
COc1ccccc1NC1=C(Cl)C(=O)OC1OC(=O)c1ccco1 (stereo not drawn),-5.7%,i
O=C(Cn1c(=O)c(C(F)(F)F)nc2ccccc21)Nc1cccc(Br)c1,-2.3%,0.9%
CCOc1ccc(-n2ccn3c(CC(C)CC(=O)O)nnc3c2=O)cc1 (stereo not drawn),-3.2%,-8.1%
CCn1ccnc1CN(C)C(=O)CC1C(=O)NCCN1Cc1c(F)cccc1Cl (stereo not drawn),-4.0%,i
CCN(CCn1cccn1)C(=O)CCc1nnc(CCc2ccccc2OC)o1,-7.9%,-1.8%
COCC(=O)Nc1cc(C(=O)NC2CCCc3ccccc32)c2c(c1)nc(-c1ccncc1)n2C (stereo not drawn),-8.1%,-14.1%
O=c1c2cc([N+](=O)[O-])ccc2nc2n1CCC2,-8.9%,i
CCOC(=O)Cn1nc(/C=C/c2ccc(C(C)C)cc2)ccc1=O,-13.3%,/
O=C(NCc1ccncc1)c1ccc2nc(Cc3ccccc3F)oc2c1,-10.1%,-3.4%
COc1cc(NC(=O)c2nn(C)c3c2COc2ccccc2-3)cc(OC)c1OC,-21.7%,-20.2%
O=C(Cn1nnc(-c2ccncc2)n1)N(C1CCCCC1)C1CCCCC1,-18.3%,-19.3%
CCCCn1c(=O)[nH]c(=O)c2c1nc(-c1ccc(OC)c(Br)c1)n2CC(C)C,?,?
Cc1ccc(NC(=O)Cn2cc3c(n2)CCCCC3)cc1,-13.4%,-11.0%
CC(C)C1Cc2c(C#N)c(N)n(C)c(=S)c2CO1 (stereo not drawn),-19.1%,-17.7%

# An excerpt from above in order of formula weight, low to high:
SMILES,Vaccinia Venus,VACV mCherry inh
CC(C)C1Cc2c(C#N)c(N)n(C)c(=S)c2CO1 (stereo not drawn),-19.1%,-17.7%
O=C(COC(=O)c1n[nH]c(=O)c2ccccc12)c1ccccc1,-19.8%,i
O=C(NCc1ccncc1)c1ccc2nc(Cc3ccccc3F)oc2c1,-10.1%,-3.4%
COc1ccc(C=NNC(=O)c2ccccc2NS(=O)(=O)c2cccs2)cc1O,-4.9%,i
CCCCn1c(=O)[nH]c(=O)c2c1nc(-c1ccc(OC)c(Br)c1)n2CC(C)C,?,?

# Continued.
SMILES,Vaccinia Venus,VACV mCherry inh
OCCNc1ncnc2c1ncn2[C@H]1CN(Cc2ccc(-c3ccccc3)cc2)C[C@@H](CO)O1,-10.6%,5.7%
COc1ccc2[nH]cc(CC(N)C(=O)O)c2c1 (stereo not drawn),-10.4%,i
Nc1[nH]c(C(=O)c2ccccc2)c(-c2ccc(F)cc2)c1C(=O)NCc1ccccc1,3.8%,0.9%
CCN(CC)c1ccc(/C=N/N2C(=O)c3ccccc3C2=O)c(O)c1,-1.9%,-13.3%
CCn1c(SCC(=O)N/N=C/c2ccc(C)o2)nnc1-c1ccc(C)cc1,-17.2%,i
CCOc1ccccc1NC(=O)CN1C=NS(=O)(=O)c2ccccc21,-14.0%,-10.9%
CCOc1ccc(Br)cc1S(=O)(=O)Nc1cccc(S(=O)(=O)N(C)c2ccccc2)c1,?,?
CN(C)CCNc1ncnc2c1ncn2[C@H]1CN(Cc2ccncc2)C[C@@H](CO)O1,7.7%,-14.6%
O=C(Cn1c(=O)n(CC2CS2)c2ccccc21)N1CCCCCC1 (stereo not drawn),-12.9%,i
O=C1C(Cl)=C(N2CCOCC2)C(=O)N1c1ccccc1Cl,-6.0%,-0.6%
Cn1cnc(C(=O)NCc2ccccc2)c1C(=O)NCc1ccccc1,-22.0%,?
CCCC(=O)Nc1sc(C)c(-c2ccc(OC)cc2)c1C#N,-10.0%,-2.3%
Cc1ccnc(N/C=C(/NC(=O)c2ccccc2)C(=O)N/N=C\c2ccc(F)cc2)n1,-17.1%,/
COc1ccc(F)cc1S(=O)(=O)NCC(c1ccco1)N1CCc2ccccc2C1 (stereo not drawn),-6.6%,?
Cc1noc(C)c1COc1ccccc1C(=O)N1CCN(S(=O)(=O)c2ccccc2F)CC1,?,-18.3%
COc1ccc(OC)c(Cc2nnc(CCC(=O)NC3C4CC5CC(C4)CC3C5)o2)c1 (stereo not drawn),-1.8%,i
COCCn1c(COc2ccc(C)cc2)nc2ccccc21,-18.6%,-7.0%
CCOC(=O)C1C(c2cccc(F)c2)NC(=S)NC1(O)C(F)(F)F (stereo not drawn),-0.2%,-3.1%
O=C(O)c1ccccc1CSc1nc2ccccc2[nH]1,-13.1%,-22.4%
CCCc1ccc2oc(C(=O)NCCCN3CCOCC3)c(C)c2c1,?,?
CCN(CC)CCNc1ccc(CO)c2sc3ccccc3c(=O)c12,?,-22.5%&-27.6%
O=C(N/N=C/c1c(O)n(CCC2=CCCCC2)c(=S)[nH]c1=O)c1ccccc1,-5.5%,i
COc1ccc(NC(=O)CN2C(=O)NC(c3ccccc3)(c3ccccc3)C2=O)cc1OC,-5.6%,?
CCC(=O)OCCNc1cc(Sc2nccn2C)c2nonc2c1[N+](=O)[O-],?,?
C/C=C(/C)C(=O)OC1Cc2c(ccc3ccc(=O)oc23)OC1(C)C (stereo not drawn),0.0%&-11.3%,-0.9%&-15.9%
Cc1ccccc1C(=O)Nc1cccc(C(=O)N/N=C/c2ccccn2)c1,-10.9%,?
C[C@@H]1CN([C@@H](C)CO)S(=O)(=O)c2ccc(Br)cc2O[C@@H]1CN(C)C(=O)c1ccncc1,1.8%,-14.4%
Cc1ccccc1S(=O)(=O)N(C)C[C@@H]1OCc2cnnn2CCCC(=O)N([C@H](C)CO)C[C@@H]1C,4.1%,-14.2%
CCOC(=O)Cn1cc(-c2ccccc2)nn1,-8.3%,i
CCOc1cc(C(c2c(C)[nH]n(-c3ccccc3)c2=O)c2c(C)[nH]n(-c3ccccc3)c2=O)ccc1O,-13.5%,-18.0%
CCOC(=O)c1c(NC(=O)CC2SC(N)=NC2=O)sc2c1CCCC2 (stereo not drawn),-21.9%,-7.7%
CC1=C(c2ccc(Cl)cc2)S(=O)(=O)N=C1N1CCN(c2cccc(C)c2C)CC1,-19.6%,-13.0%
CCc1ccc(N=C2NC(=O)CS2)cc1,-18.0%,-4.9%
CCOC(=O)c1ccc(NC(=O)CNS(=O)(=O)c2ccccc2)cc1,-17.5%,/
Cc1ccc(NC(=O)CCOc2ccccc2)cc1,2.9%,-4.5%
CC(C)(C)c1ccc(C(=O)N2CCCC(c3nc4c(nnn4Cc4cccc(F)c4)c(=O)[nH]3)C2)cc1 (stereo not drawn),-10.0%,-9.2%
CCCc1cc(=O)[nH]c(Nc2ccc(O)cc2C)n1,4.0%,2.2%
CCOC(=O)CSc1nc2c(sc3ccccc32)c(=O)n1Cc1ccc(C)cc1,-10.0%,-0.9%
CC(=O)O[C@H]1C[C@@]2(C)[C@@H](C[C@@H](O)[C@H]3[C@@]4(C)CC[C@@H](O)[C@@H](C)[C@@H]4CC[C@@]32C)/C1=C(\CCC=C(C)C)C(=O)O,-14.5%&-6.3%,-6.1%&-14.2%
Cc1nnsc1C(=O)Oc1ccc(C(C)C)cc1,-7.0%,-13.5%
COc1ccc(CCNC(=O)CSc2nc(=O)n3cc(C)ccc3n2)cc1OC,-10.5%,i
CCOc1ccc(N(CC(=O)N2CCN(c3ccccc3)CC2)S(=O)(=O)c2c(C)noc2C)cc1,-21.7%,i
COCCSc1nnc(NC(=O)Cc2ccc(OC)c(OC)c2)s1,-15.3%,-4.1%
CC1CN(C(=O)COC(=O)c2cc(S(N)(=O)=O)c(Cl)cc2Cl)CC(C)O1 (stereo not drawn),-4.3%,i
CCc1ccn2cc(-c3ccc4c(c3)OCO4)nc2c1,-16.8%,-22.3%
Cc1ccc(C)c(N2CCN(CCCNC(=O)Cn3c(=O)c4cccn4c4cccnc43)CC2)c1,-7.9%[7.34 µM],-17.3%[7.34 µM]
Cc1ccccc1NC(=O)CC(=O)Nc1ccccc1C,-12.9%,-9.5%
COCCn1c(CN2CC(C)CC(C)C2)nc2c1c(=O)n(C)c(=O)n2C (stereo not drawn),4.5%,-5.8%
COc1ccc(-c2sc3cc(OC)ccc3c2-c2ccc(OCCN3CCCCC3)cc2)cc1,-4.6%,12.4%
CCN(CC)CCCNC(=O)CCc1c(C)n(CC)c2cc(-c3ccccc3OC)nn2c1=O,-10.9%&10.3%,-15.2%&-0.4%
COc1cc(-c2noc(-c3ccc(NCCc4ccccc4)c([N+](=O)[O-])c3)n2)cc(OC)c1OC,0.2%,4.4%
COc1ccc(S(=O)(=O)N2CCc3ccccc32)cc1C(=O)OCc1nnc(-c2ccccc2)o1,8.6%,0.8%
COc1ccccc1CNc1ccc([N+](=O)[O-])cc1C,-3.9%,-7.4%
CC1(C(=O)NS(=O)(=O)c2ccc(C#N)cc2)CCN1C(=O)C1(c2ccccc2)CC1 (stereo not drawn),17.2%,42.4%[activator]
COC(=O)c1scc(-c2ccc(C)cc2)c1S(=O)(=O)Nc1cc(OC)c(OC)c(OC)c1,6.9%,-2.2%
CCCc1nnc(NC(=O)CCC(=O)N2CCCCC2CC)s1 (stereo not drawn),-18.3%,-12.6%
Cc1cc(C)nc(SCc2cc(=O)c(OC(=O)c3ccc(S(=O)(=O)N4CCCC4)cc3)co2)n1,-5.4%,-13.3%
COC(=O)c1cn([C@@H]2C[C@@H](C(=O)Nc3cccc(SC)c3)N(C3CCCCCC3)C2)nn1,-3.9%,-3.7%
Cc1n[nH]c(=O)c2c(NC(=O)CSc3ccccc3F)oc(C)c12,-2.7%,-11.6%
CCCc1c(C(=O)N/N=C/c2ccc(OCc3ccccc3)cc2)nnn1-c1nonc1N,-14.9%,-15.0%

# Additional results.
SMILES,Vaccinia Venus,VACV mCherry inh
COc1cccc(NC(=O)Nc2cccs2)c1,-14.3%,/
CC(=O)Nc1ccc(C#Cc2ccc(NC(C)=O)cc2)cc1,-5.9%,-15.8%
CCOC(=O)[C@]12CCCC=C1N(Cc1ccc3c(c1)OCO3)C(=O)[C@H](CC(=O)NCc1cccc3ccccc13)C2,?,-28.2%
CCOc1ccc(CC(=O)N2N=C(C)CC2(O)C(F)(F)F)cc1 (stereo not drawn),-2.0%,i
O=C(CSc1nc2ccccc2c(=O)n1-c1ccccc1)N1CCc2ccccc2C1,-24.9%,-11.7%
O=C(c1ccc(N2CCCCC2)c([N+](=O)[O-])c1)N(c1ccccn1)c1ccccn1,-13.9%,-4.3%
CCOc1ccccc1NC(=O)c1cc2ccccc2oc1=O,-11.1%,-5.8%
CCOC(=O)[C@]12CCC=C1N(Cc1ccccc1)C(=O)[C@H](CC(=O)NCc1cccc3ccccc13)C2,-11.3%,-21.5%
Cc1cccc(C(=O)N(NC(=O)Oc2ccccc2)C(C)(C)C)c1,-4.8%,-5.4%
CCOC(=O)N1C2c3ccccc3C(c3ccccc32)N1C(=O)OCC,0.2%,-11.3%
CCOC(=O)CC(NC(=O)CCc1c(C)nc2cc(-c3ccccc3)nn2c1C)c1ccc(C)cc1 (stereo not drawn),-22.8%,i
CO[C@H]1[C@H](NC(=O)c2ccsc2)c2ccccc2C12CCN(Cc1cnn(C)c1C)CC2,-6.7%,-13.3%
CN1C(=O)CN=C(c2ccc(Cl)cc2)c2cc(Cl)ccc21,-19.7%,-25.1%
CN1CCN(C2=Nc3ccccc3Sc3ccc(Cl)cc32)CC1,-27.4%,-8.0%
COCCCNC(=O)c1oc2ccc(S(=O)(=O)N3CCOCC3)cc2c1C,-12.7%,i
Cc1ccc(C)n1-n1c(C)nc2sc3c(c2c1=O)CCCCC3,-10.9%,/
Cc1ccc(N(C(=O)CNC(=O)c2ccco2)C(C(=O)NC2CCCCC2)c2cccnc2)c(C)c1 (stereo not drawn),-20.7%,-0.5%
COc1ccccc1N1CCN(C(=O)CSc2nnnn2C2CC2)CC1,-3.4%,-8.6%
CCCCOc1ccc(C(=O)NCCS(=O)(=O)N2CCN(c3ccc(F)cc3)CC2)cc1,-5.7%,-15.3%
CC(C(=O)NC1CCCC1)n1c(-c2ccccn2)nc2ccccc21 (stereo not drawn),-2.0%,16.7%
Cc1ccc(C(=O)NC(C(=O)Nc2cccc(S(N)(=O)=O)c2)C(C)C)cc1 (stereo not drawn),-4.6%,-12.4%
S=C(Nc1cccnc1)Nc1ccccc1Br,-13.5%,i
Cc1ccc(C)c(Cn2c3ccccc3c3cnn(CC(=O)NCCc4ccccc4)c(=O)c32)c1,-2.2%,-16.8%
COc1ccc(N2CCN(C(CNC(=O)C3CCCCC3)c3cccnc3)CC2)cc1 (stereo not drawn),-12.1%,-17.9%[1.46 µM]
CCOC(=O)c1ccc(NC(=O)C(CC)Sc2nc3ncccc3[nH]2)cc1 (stereo not drawn),-4.1%,-2.5%
O=C(Nc1nc(-c2ccc3c(c2)OCO3)cs1)c1ccncc1,-23.2%,?
CN(Cc1ccon1)C(=O)CCc1nnc(CCCCc2ccccc2)o1,-4.1%,i
COc1ccc(C)cc1NC(=O)c1nnn(-c2c(C)cccc2C)c1C,-6.8%,-12.0%
